# Source: PubChem BioAssay (National Center for Advancing Translational Sciences (NCATS))
# RE007 growth inh – less growth of the S. pombe RE007 Vpr strain; 0.21% of 360,000 active; AID 651644; S. pombe RE007 Vpr strain, BacTiter-Glo ATP luminescence, 24 h; control for the full effect not named in the record; Potency, µM (highest dose often 92.2 µM), without a hit: top-dose activity change, negative = less growth; active = well fitted falling curve with a large enough effect; inconclusive = small, poorly fitted or top-dose-only effect; inactive = no such curve, though single readings can be large or run the other way;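 also: % is scaled to controls: 0 for no effect and ±100 for the full control effect; nearly all actives have a fitted effect of over 50% in size; the assay follows cell death caused by Vpr and the record does not say whether a fall means rescue or toxicity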
#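 Fission yeast RE007 carrying one integrated HIV-1 vpr copy, seeded at OD 0.01 in PMG+AL medium with 23 nL pinned compound. Grown 24 h at 30 degrees; viability read by BacTiter-Glo luminescence after 5 min.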
# Lassa entry inh – Lassa virus entry inhibition; AID 540256; Lassa virus pseudotype entry inhibition, cell reporter; control for the full effect not named in the record; 1.2% of 300,000 active; Potency, µM (titrated, usually from 37.9 µM), for inactives: top-dose activity change, negative = inhibition, actives largely listed as inhibitors; active means well fitted inhibition curve with a large enough effect; inconclusive means small, poorly fitted or top-dose-only effect, or effect the other way; inactive means flat fitted curve, though single readings scatter; tested in HEK293 cells; also: % is scaled to controls: 0 for no effect and ±100 for the full control effect; nearly all actives have a fitted effect of over 50% in size; luciferase read-out
# NS1 inh – blocks influenza NS1 protein function | AID 2326 | S. cerevisiae slowed by influenza A NS1, growth recovery by OD600 | 0.4% of 270,000 active | Potency, µM (series often up to 46.1 µM), inactives show top-dose activity, positive = more growth; active means well fitted rising curve with a large enough effect; inconclusive means small, poorly fitted or top-dose-only effect; inactive means no such curve, though single readings can be large or run the other way; also: nearly all actives have a fitted effect of over 50% in size
#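 Growth recovery, yeast-based: influenza A NS1 expressed in S. cerevisiae causes slow growth, and suppressors are detected by OD600. The parent strain without NS1 is used as positive control.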
# SARS PLpro yeast – inhibitors of SARS-CoV papain-like protease in yeast | S. cerevisiae expressing SARS-CoV PLpro, growth rescue; control for the full effect not named in the record | Potency, µM (top dose mostly 32.9 µM), without a hit: at the highest dose activity, positive = growth rescue | 0.19% of 330,000 active; active means well fitted rising curve with a large enough effect; inconclusive means small, poorly fitted or top-dose-only effect; inactive means no such curve, though single readings can be large or run the other way; also: 0% is about no effect; nearly all actives have a fitted effect of over 55% in size; growth read by luminescence after 48 h
# MARV entry inh – blocks Marburg virus binding to or entry into cells; Marburg virus pseudotyped entry inhibition, cell reporter; control for the full effect not named in the record; about a third of the inactives were read at about 46 µM; Potency, µM (top dose mostly 37.8 µM), for inactives: at the highest dose activity change, negative = inhibition, actives largely listed as inhibitors; 1.8% of 300,000 active; AID 540276; active = well fitted inhibition curve with a large enough effect; inconclusive = small, poorly fitted or top-dose-only effect, or effect the other way; inactive = flat fitted curve, though single readings scatter; tested in HEK293 cells; about a fifth of its hits are not listed in these tables; also: % is scaled to controls: 0 for no effect and ±100 for the full control effect; luciferase read-out
# Cruzain inh Det – cruzain (T. cruzi) inhibition with detergent. purified cruzain, Z-FR-AMC fluorescence, 0.01% Triton. Potency, µM, without a hit: max response, negative = inhibition, usual class: inhibitors. 0.43% of 200,000 active;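 also: plate controls were neutral wells for no effect and buffer without enzyme for full effect; nearly all actives have a fitted effect of over 40% in size; top concentration of the series not given in the record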
# Target sequence (P25779 123-467 limits assumed): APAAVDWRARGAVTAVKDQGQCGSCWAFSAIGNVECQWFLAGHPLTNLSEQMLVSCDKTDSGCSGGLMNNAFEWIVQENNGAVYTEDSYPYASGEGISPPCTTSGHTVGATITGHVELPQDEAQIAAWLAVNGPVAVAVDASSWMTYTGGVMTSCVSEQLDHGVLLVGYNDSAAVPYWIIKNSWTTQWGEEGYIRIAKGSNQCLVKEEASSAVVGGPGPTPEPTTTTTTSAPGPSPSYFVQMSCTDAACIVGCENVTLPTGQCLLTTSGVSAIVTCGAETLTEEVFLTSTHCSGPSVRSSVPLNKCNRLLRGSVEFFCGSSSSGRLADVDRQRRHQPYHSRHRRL
#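 Cysteine protease activity tested under reducing, mildly acidic conditions (100 mM sodium acetate pH 5.5, 5 mM DTT) plus 0.01% Triton X-100. Cruzain 1.5 nM; substrate Z-FR-AMC 2 uM; 15 min compound preincubation at room temperature.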
# StopGo reporter – FMDV 2A StopGo reporter, luciferase signal; AID 1159524; 1.2% of 410,000 active; Potency, µM (top dose mostly 57.9 µM), for inactives: top-dose signal change, negative = less light; human cells with a luciferase reporter of 2A StopGo recoding; control for the full effect not named in the record; active = well fitted falling curve with a large enough effect; inconclusive = small, poorly fitted or top-dose-only effect; inactive = no such curve, though single readings can be large or run the other way; tested in HEK293T cells; also: % is scaled to controls: 0 for no effect and ±100 for the full control effect; nearly all actives have a fitted effect of over 45% in size; luciferase light after 4 h
# Cruzain inh noDet – cruzain (T. cruzi) inhibition without detergent. purified cruzain, Z-FR-AMC fluorescence, no detergent. P25779. AID 1476. Potency, µM, for inactives: max response, negative = inhibition, actives largely listed as inhibitors. 2.3% of 200,000 active;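 also: plate controls were enzyme without inhibitor for no effect and buffer without enzyme for full effect; nearly all actives have a fitted effect of over 40% in size; top concentration of the series not given in the record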
#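 Detergent-free condition (0.00005% Triton X-100) in acetate buffer pH 5.5 with DTT. 1.5 nM enzyme and compound were pre-mixed 15 min, then 2 uM Z-FR-AMC substrate added; reaction progress from fluorescence change between first and third reads (60 s).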
# * = called active by the depositor; u = inconclusive; x = not tested or not shown; & = joins results of further samples; [ ] = dose if it differs, or a comment. Unless noted, calls follow the shape of the dose curve; as a rule, active = well fitted curve in the direction sought with a large enough effect; inconclusive = small, poorly fitted or top-dose-only effect, or another doubt; inactive = no such curve, though single readings can be large; an effect the other way counts as inactive or inconclusive. Potency is read from the fitted curve at half-maximal effect.
structure	SARS PLpro yeast	Cruzain inh Det	StopGo reporter	RE007 growth inh	Cruzain inh noDet	Lassa entry inh	MARV entry inh	NS1 inh
CCc1ccc(NC(=O)Cn2nnc(C(=O)NCc3ccco3)c2N)cc1	2.2%	0.0%	-8.4%&0.8%	2.3%	u	-2.8%&17.6%[46.1 µM]	-2.8%&5.2%[46.1 µM]	4.9%
CCN(c1ccc(OCC(=O)OCC(=O)c2c(N)n(C)c(=O)n(C)c2=O)cc1)S(=O)(=O)c1ccccc1	-4.4%	x	-4.4%	3.1%	x	-1.4%[46.1 µM]	-11.0%[46.1 µM]	x
CCCc1cc(-c2n[nH]c(C(=O)OCC)c2-c2cscn2)c(O)cc1O	5.8%	-2.4%	35.5µM*	8.5%	-0.6%	u	u	11.7%
COc1cc(/C=N/NC(=O)Cn2cnc3c2c(=O)n(C)c(=O)n3C)ccc1O	0.6%	x	-13.8%	0.9%	x	x	x	3.7%
COc1cc(/C=C/C(=O)OCC(=O)Nc2ccc(S(N)(=O)=O)cc2)ccc1O	0.3%	x	-7.5%	10.0%	x	x	x	-1.5%
Cc1ccc(OCC(=O)NCCCNC(=O)c2cnccn2)cc1C	2.0%	x	25.4%	2.3%	x	0.5%[46.1 µM]	-2.7%[46.1 µM]	-1.5%
Cc1ccc(S(=O)(=O)C2(C(=O)NC3CCCCC3)CC2)cc1	-0.7%	x	-9.7%	-1.8%	x	x	x	-12.7%
Cc1c(C(=O)Nc2ccccc2Cl)oc2ccc(S(=O)(=O)N3CCCCC3)cc12	x	2.2%	8.1%	x	0.2%	u	x	x
Cc1noc(-c2ccc(C(F)(F)F)cc2)c1NC(=O)Nc1ccc(Cl)cc1	-5.2%	x	u	-9.0%	x	x	x	-34.0%
CC(=O)C1C(=O)CC(c2ccc(Cl)cc2)CC1=O (stereo not given)	-0.8%	x	-3.9%	u	x	2.0%[46.1 µM]	1.0%[46.1 µM]	-82.7%
CCC(CC)c1nnc(NC(=O)c2ccc([N+](=O)[O-])cc2)s1	-19.9%	-3.6%	11.0%	-0.2%	u	2.5%	-14.6%	-6.4%
CC1CCN(Cc2cc(=O)oc3ccc(C(C)C)cc23)CC1	0.9%	x	u	-1.8%	x	x	x	-4.1%

# Further records follow.
structure	SARS PLpro yeast	Cruzain inh Det	StopGo reporter	RE007 growth inh	Cruzain inh noDet	Lassa entry inh	MARV entry inh	NS1 inh
CCOc1ccc(CNc2ccc(N3CCCC3)cc2)cc1	-5.7%	-1.5%	-16.1%	-25.2%	u	-28.4%[14.3 µM]	2.4%	-9.8%
CCC(C)(C)n1nnnc1C(c1cc2ccc(OC)cc2[nH]c1=O)N1CCN(C2CCCCC2)CC1 (stereo not given)	-0.8%	-0.9%	-29.3%	-2.3%	-7.9%	16.1%	13µM*	5.6%
CC(=O)NC(CCS(C)(=O)=O)C(=O)Nc1cc(C)ccc1C (stereo not given)	5.9%	3.9%	-15.1%	4.1%	9.1%	x	x	-9.8%
Cc1ccc(NC(=O)COC(=O)c2cc(=O)c3cc(F)ccc3o2)cc1	-4.0%	x	11.6%	4.5%	x	1.9%	4.4%[46.1 µM]	x
CCCc1cc(O)c2c(C)cc(=O)oc2c1	-10.3%	-3.5%	x	1.7%	-12.9%	0.0%	-3.3%	-41.4%
N#Cc1ccccc1NC(=O)c1ccccc1OCC(=O)Nc1ccc2c(c1)oc1ccccc12	x	x	x	3.2%	x	6.3%	u	16.1%
COCCn1c(SCC(=O)c2ccc(Cl)cc2)nnc1C(C)C	-1.6%	-4.3%	-9.4%	4.7%	0.8%	-0.7%	-25.6%[46.1 µM]	-6.6%
CC(=O)N1CCc2c(sc3c2c(=O)n(-c2ccccc2)c(=O)n3CC(=O)c2ccccc2)C1	x	-0.2%	-9.5%	x	-1.3%	x	u	x
Cc1cc(C)c2nc(SCC(=O)NCCN3C(=O)CSC3=O)cc(C)c2c1	3.4%	-4.1%	-13.3%	-13.5%	25.3%	8.8%	3.3%	1.8%
CC(C)CCNC(=O)c1nn(C)c2c1CSc1ccccc1-2	x	-5.4%	32.7%[activator]	x	4.0%	-6.1%[46.1 µM]	-10.4%[46.1 µM]	x
CC1(CC(=O)N/N=C/c2cc([N+](=O)[O-])c(O)cc2O)OCCO1	-1.9%	x	-8.2%	9.4%	x	-3.6%	4.5%[46.1 µM]	x
Cc1cccc(-n2c(N)cc(=O)nc2SCC(=O)Nc2cc(C)on2)c1	7.0%	-12.0%	3.8%	-11.6%	-19.2%	10.0%	10.5%	-3.7%

# The list goes on.
structure	SARS PLpro yeast	Cruzain inh Det	StopGo reporter	RE007 growth inh	Cruzain inh noDet	Lassa entry inh	MARV entry inh	NS1 inh
Cc1nc(N2CCN(c3ccccn3)CC2)c2c(C)c(C(=O)Nc3ccc(F)cc3)sc2n1	-5.5%	x	u	6.6%	x	u	u	x
COC(=O)CSc1nnc(-c2cccc(O)c2)o1	x	-0.6%	5.2%	x	1.0%	1.0%[46.1 µM]	x	x
CCOC(=O)C(Sc1cc(-c2ccccc2)nc2ncnn12)C(C)=O (stereo not given)	-0.4%	x	u	7.3%	x	-1.8%	u	-0.5%
COC(=O)C1=C(C)NC(C)=C(C(=O)OC)C1C(=O)OCC(=O)N1CCCCC1C (stereo not given)	1.9%	x	2.7%	-12.8%	x	12.6%[46.1 µM]	2.5%	x
CCN(CC)NC(=O)Nc1ccccc1	0.2%	x	-6.6%	9.3%	x	-14.8%[46.1 µM]	6.2%[46.1 µM]	-0.3%
Cc1ccc(S(=O)(=O)N2CCN(c3ccc(N4CCOCC4)nn3)CC2)cc1[N+](=O)[O-]	-0.6%	x	-0.7%	-22.8%	x	15.5%	9.7%	x
CC12CCC(=O)N1C(C(=O)NCc1ccccc1Cl)CS2 (stereo not given)	0.2%	x	-14.4%	-28.1%	x	2.9%	9.9%	x
O=C(CSc1nnc(-c2ccccc2)n1-c1ccccc1)N1c2ccccc2Sc2ccccc21	9.4%	5.4%	5.4%	1.5%	-13.3%	-5.8%	-27.1%&-2.5%	3.7%
O=[N+]([O-])c1cccc(CN2CCN(Cc3ccco3)CC2)c1	-0.4%	x	-21.3%	-7.7%	x	x	x	2.6%
C=C(C)Cn1c(CCn2c3ccccc3c3ccccc32)n[nH]c1=S	2.8%	-10.1%	u	0.3%	7.4%	12.3%	u	8.6%
Oc1c(C(Nc2ccccn2)c2ccccn2)ccc2cccnc12 (stereo not given)	u	-14.2%	-20.4%	u	19.6%	u	u	-94.4%
CC(C)Oc1ccc(C(=O)N(Cc2ccco2)Cc2cccs2)cc1	x	-5.9%	28.4%	x	-10.7%	u	-15.1%[46.1 µM]	x

# Further records.
structure	SARS PLpro yeast	Cruzain inh Det	StopGo reporter	RE007 growth inh	Cruzain inh noDet	Lassa entry inh	MARV entry inh	NS1 inh
CSc1ccc(S(=O)(=O)NCC(=O)OCC(=O)NCC2CCCO2)cc1[N+](=O)[O-] (stereo not given)	-1.1%	x	-5.4%	4.7%	x	12.3%	3.6%[46.1 µM]	x
CCCCNc1nc2cccnc2s1	-2.1%	x	31.5%[activator]	-20.0%	x	x	x	-0.8%
Cc1cc(NC(=O)/C=C/c2ccc(Cl)cc2)no1	-15.3%	0.7%	18.5%	-17.5%	u	18.4%	u	-0.6%
COc1cc(-c2nc(CN3CCCCC3CCNC(C)=O)c(C)o2)ccc1F (stereo not given)	0.3%	x	-19.9%	-17.4%	x	x	x	2.5%
Cc1ccc(S(=O)(=O)N(C)c2ccc(C(=O)Nc3ccccc3C(=O)N3CCOCC3)cc2)cc1	0.8%	x	0.0%	3.4%	x	14.1%	3.9%	11.2%
Cc1cc2c(cc1S(=O)(=O)N1CCN(c3cccc(C)c3C)CC1)OCCN2C	-11.3%	x	-0.4%	4.0%	x	x	x	24.0%
CCc1cccc2c(C(=O)CSc3nncn3C)c[nH]c12	1.9%	x	63.2%[activator]	9.8%	x	u	11.4%[46.1 µM]	1.9%
CCN1C(=O)/C(=C\N2CCN(C(=O)c3ccco3)CC2)SC1=S	0.1%	x	-13.7%	9.1%	x	-0.9%	-10.9%[46.1 µM]	3.7%
O=C(Nc1ccc(Cl)c(S(=O)(=O)N2CCCC2)c1)c1nn(CCO)c(=O)c2ccccc12	0.6%	x	u	1.0%	x	-28.9%	u	x
COC(=O)c1ccc(CN(c2ccccc2OC)S(=O)(=O)c2cccs2)o1	2.8%	-6.1%	-13.8%	-9.1%	15.3%	1.9%	u	-19.5%
COc1c(C)cccc1C(=O)Nc1ccc(Cl)c(-c2nc3cc(C)ccc3o2)c1	x	-4.0%	2.9%	x	u	u	-1.0%[46.1 µM]	x
Cc1ccc(CNC(=O)C2CCN(S(=O)(=O)c3ccc4c(c3)OCCCO4)CC2)cc1	6.7%	-3.5%	-3.0%	4.4%	13.0%	-2.6%	20.6%	-14.7%

# (list continues)
structure	SARS PLpro yeast	Cruzain inh Det	StopGo reporter	RE007 growth inh	Cruzain inh noDet	Lassa entry inh	MARV entry inh	NS1 inh
CCOc1ccc(C2C3=C(CCCC3=O)Nc3ccc4ncccc4c32)cc1 (stereo not given)	0.9%	x	-18.7%	3.6%	x	x	x	1.7%
COc1ccc(-c2csc(N3C(=O)C4C5c6ccccc6C(c6ccccc65)C4C3=O)n2)cc1 (stereo not given)	14.6%	-0.4%	-13.1%	5.5%	15.8µM*	5.7%	-3.0%	-4.5%
O=C(NCCCN1CCN(Cc2ccccc2)CC1)C1CCN(c2nnc(-n3cccc3)s2)CC1	-3.3%	-6.8%	u	8.8%	-9.4%	-21.7%	u	8.4%
COc1cccc2c(=O)n(CC(=O)NC3CCCCC3)ccc12	5.2%	-0.6%	4.5%	10.2%	5.7%	x	x	-7.4%
Cc1ccc(C(=O)Nc2ccc3c(c2)N(C)C(=O)c2ccccc2S3)cc1	x	-4.1%	u	x	1.0%	u	x	x
CCCSc1nnc(NC(=O)c2sc3nc(-c4cccs4)ccc3c2N)s1	-10.1%	-5.7%	17.3%	-6.7%	-2.5%	1.8%	15.6%&15.6%	8.6%
COc1ccc(CCN(C)C2CCCN(S(C)(=O)=O)C2)cc1OC (stereo not given)	13.1%	x	4.3%	2.6%	x	x	x	5.5%
